TRPV1 potentiator: HTS Assay for Compounds that Act as Potentiators of the Vanilloid Receptor 1; Transient receptor potential cation channel subfamily V member 1 (Homo sapiens), Q8NER1; TRPV1-expressing cells, Fluo-8 calcium influx, capsaicin EC20 potentiation; host cell line not named in the record; control for the full effect not named in the record; potentiation, % at 8.33 µM; hit rate 0.02% among 320,000; AID 540277, 2011; active means potentiation above 80%; inconclusive means 30% to 80%; inactive means below 30%; note: 0% is about no effect
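Fluo-8 calcium influx in TRPV1-expressing cells, kinetic read (ex 480/em 520 nm). Compound added and read 3 min for agonist activity, followed by capsaicin at EC20 final and 2 min further read for enhancement.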
TRPML1 ag: qHTS for Agonists of the Human Mucolipin Transient Receptor Potential 1 (TRPML1) | AID 624414, 2012 | Mucolipin-1 (Homo sapiens), Q9GZU1 | activation, % (no concentration beside the values) | TRPML1-expressing cells, Ca2+ dye fluorescence, FDSS; host cell line not named in the record; reference of the full effect not given here | hit rate 0.12% among 410,000; in the data active = activation above about 50%; inconclusive = about 30% to 50%; inactive = below about 30%; note: 0% is about no effect; the text of the record puts the active cut at 80%
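TRPML1-DL cells, Tet-induced overnight (~16 h, 37 degrees C), loaded 45-90 min at room temperature with Ca8 no-wash calcium dye plus quencher. FDSS fluorescence: 10 s baseline, compound pin-transfer, 110 s agonist read, then EC80 54-4 (4uM final) and 110 s antagonist read.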
Six1-Eya2 blk: qHTS Assay for Inhibitors of the Six1/Eya2 Interaction. Homeobox protein SIX1 (Homo sapiens) + Protein phosphatase EYA2 (Homo sapiens), …. hit rate 0.56% among 360,000. activity change, % (concentration not given with the values). AID 651725, 2012. AlphaScreen GST-Six1/His-Eya2 binding, biochemical; active compounds read low; control for the full effect not named in the record; in the data active = activity change below about -65%; inconclusive = about -30% to -65%; inactive = above about -30%; note: % is set by controls: 0 for no effect and ±100 for the full control effect
Target sequence (O00167 whole entry, looked up): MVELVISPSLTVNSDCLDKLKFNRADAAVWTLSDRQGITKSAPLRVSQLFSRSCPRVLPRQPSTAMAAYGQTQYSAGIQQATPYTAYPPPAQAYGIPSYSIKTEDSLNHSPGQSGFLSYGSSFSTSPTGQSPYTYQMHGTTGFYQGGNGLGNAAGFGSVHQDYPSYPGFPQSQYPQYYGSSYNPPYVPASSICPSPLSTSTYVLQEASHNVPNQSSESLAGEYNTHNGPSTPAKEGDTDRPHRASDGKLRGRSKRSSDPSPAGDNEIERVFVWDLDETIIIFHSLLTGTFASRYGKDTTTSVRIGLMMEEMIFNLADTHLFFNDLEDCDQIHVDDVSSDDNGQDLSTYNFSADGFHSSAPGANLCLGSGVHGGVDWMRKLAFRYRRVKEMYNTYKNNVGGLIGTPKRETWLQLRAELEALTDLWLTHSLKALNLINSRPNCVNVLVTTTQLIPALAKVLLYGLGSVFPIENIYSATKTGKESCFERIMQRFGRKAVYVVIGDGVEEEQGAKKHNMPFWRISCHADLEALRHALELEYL
Target sequence (Q15475 whole entry, looked up): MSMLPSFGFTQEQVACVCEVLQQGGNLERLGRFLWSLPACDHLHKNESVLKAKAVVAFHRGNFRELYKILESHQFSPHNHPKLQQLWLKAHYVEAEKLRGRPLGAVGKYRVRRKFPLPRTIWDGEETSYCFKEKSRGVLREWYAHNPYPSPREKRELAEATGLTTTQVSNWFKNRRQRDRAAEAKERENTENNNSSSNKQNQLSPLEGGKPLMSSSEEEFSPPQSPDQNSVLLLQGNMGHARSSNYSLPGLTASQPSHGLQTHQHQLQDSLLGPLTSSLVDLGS
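AlphaScreen with GST-Six1 and His-Eya2 (5X mix: 250 nM and 500 nM), glutathione donor and nickel acceptor beads; buffer 50 mM Tris pH 8.0, 300 mM NaCl, 1 mM TCEP; 1 h at 37 C in the dark.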
TRPML1 blocker: qHTS for Inhibitors of the Human Mucolipin Transient Receptor Potential 1 (TRPML1) | hit rate 0.02% among 390,000 | activity change, negative = inhibition, % (concentration not given with the values) | Mucolipin-1 (Homo sapiens), Q9GZU1 | TRPML1-inducible cells, Ca2+ dye fluorescence, FDSS; active compounds read low; inhibition of EC80 agonist-evoked calcium signal; in the data active means activity change below about -50%; inconclusive means about -30% to -50%; inactive means above about -30%;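 note: stimulus is agonist 54-4 at its EC80 concentration; % is set by controls: 0 for no effect and ±100 for the full control effect; the text of the record puts the active cut at -80%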
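TRPML1-DL cells, Tet-induced overnight (~16 h, 37 °C) at 1,500 cells/well, were loaded with Ca8 no-wash dye plus quencher for 45-90 min at room temperature. Compounds were pinned during FDSS kinetic reading; agonist 54-4 at EC80 (4 uM final) then added.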
CtBP-E1A inh: qHTS Assay for Inhibitors of the CtBP/E1A Interaction. CtBP / adenovirus E1A interaction (AlphaScreen). AlphaScreen GST-E1A/His-CtBP binding, 1536-well; active compounds read low; control for the full effect not named in the record. activity change, % (test concentration not listed). hit rate 0.49% among 340,000. AID 651724, 2012; in the data active means activity change below about -65%; inconclusive means about -30% to -65%; inactive means above about -30%; note: % is set by controls: 0 for no effect and ±100 for the full control effect
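AlphaScreen with 125 nM GST-E1A and 125 nM His-CtBP (5X stocks) in Tris pH 8.0, 300 mM NaCl, BSA, Tween 20, TCEP. Compounds preincubated 2 h at 37 deg C, then glutathione donor/nickel acceptor beads added for 1 h at 37 deg C in dark.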
D2 PAM: Beta-Arrestin HTS for Positive Allosteric Modulators of the Human D2 Dopamine Receptor: Potentiators; potentiation, % (concentration not given with the values); D(2) dopamine receptor (Homo sapiens), P14416; DiscoveRx D2 beta-arrestin cells, luminescence, 90 min; 100% = 57 uM dopamine signal; hit rate 0.23% among 360,000; active = potentiation of 50% or more; inconclusive = 30% to 50%; inactive = 30% or less;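 note: compound concentration not given in the record; tested on top of an EC20 dose of dopamine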
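PathHunter beta-arrestin assay in DiscoveRx D2 cells. Compounds were added with an EC20 of dopamine (50 nM final) for 90 min at 37 deg C. Luminescence was read 1 h after detection reagent, with 57 uM dopamine as the EC100 control.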
Numbers without * were called inactive; ? = inconclusive; . = no result given; & = joins results of further samples.

SMILES	TRPV1 potentiator	TRPML1 ag	Six1-Eya2 blk	TRPML1 blocker	CtBP-E1A inh	D2 PAM
CC1(C)C(C=C(Cl)Cl)C1C(=O)N1CCN(Cc2ccccc2)CC1 (centres undefined)	-11	-0.3	13	15	3	?
COc1cccc2c1C(=O)c1c(O)c3c(c(O)c1C2=O)CC(O)(C(C)=NNC(=O)c1ccc(Cl)c(Cl)c1)CC3OC1CC(N)C(O)C(C)O1 (centres undefined)	.	8.6	?	-1	?	-10
CSc1nc(C)c(Oc2ccccc2)c(=O)n1C	-7	0.8	2	-25	8	6
COc1cccc(CN2CCN(Cc3ccc4c(NC(C)=O)cccc4n3)CC2CCO)c1 (centres undefined)	8	-0.2	0	-27	-6	-6
CCOc1ccccc1NC(=O)NC(=O)N(C)S(=O)(=O)c1ccc(C)cc1	-1	0.2	-2	-15	3	3
O=C(Nc1nncs1)C1CC(=O)N(CCc2ccc(F)cc2)C1 (centres undefined)	1	-0.4	9	4	0	0
CNc1oc(-c2ccco2)nc1C#N	2	-0.2	-4	7	4	-9
CC(=O)N1CCOc2ccc(S(=O)(=O)N3CCC(C(=O)Nc4cc(C)ccc4C)CC3)cc21	9	-1.0	1	5	-2	-25
N#Cc1c(C(F)(F)F)cc(-c2ccccc2)nc1SCc1nc(N)nc(N2CCOCC2)n1	3	12	1	7	14	-2
O=C(Nc1cccc2ccccc12)N1CC=CCC1	8	1.9	-2	-1	0	-1
Cc1nc(CS(=O)(=O)c2ccc(Cl)cc2)cc(Sc2ccc(Cl)cc2)n1	0	0.4	-1	55	-4	-3
CC[C@H](C)[C@@H](NC(=O)O[C@@H]1C(=O)c2cc(Br)ccc2O[C@H]1c1cccc(OC)c1)C(=O)OC	-5	0.3	-5	-8	.	-13
NC(=O)CN1CCN(Cc2ccc3c(c2)OCO3)CC1	3	0.7	3	33	-6	-7
COc1ccc(-n2c(Cn3c(=O)sc4ccccc43)nnc2SCC(N)=O)cc1	-2	0.6	6	34	-1	-5
O=C(c1cc(-c2cccs2)on1)N1CCN(C(c2ccccc2)c2ccccc2)CC1	-2	3.8	1	-15	0	-1
Nc1c(C(=O)O)cnc2c(-c3ccc(Cl)cc3)cnn12	0	-0.4	-22	10	-20	5
COc1ccccc1-c1nc2cc3ccccc3cc2nc1-c1ccccc1	5	1.2	7	1	.	-3
CCOC(=O)N1CCN(C(=O)CNC(=O)c2ccc(Br)o2)CC1	-4	-1.0	21	-10	0	-25
CC(C)Sc1nc2c(c(=O)[nH]c(=O)n2C)n1CC(O)COc1ccccc1 (centres undefined)	1	0.3	-7	7	12	5
COc1ccccc1-n1nnnc1SCC(=O)Nc1ccc(C)c(N)c1	-11	-0.5	-9	7	-3	-6
CC(C)c1nc2c(s1)CCc1onc(-c3cccc([N+](=O)[O-])c3)c1-2	17	-0.7	-15	-2	-8	-8
CCOC(=O)CSc1nnc(CNc2ccc(F)cc2)o1	18	-0.1	3	3	5	-6
c1coc(CNc2nc(N3CCCCC3)nc3ccccc23)c1	-14	-0.8	-8	14	0	-23
C=CCn1c(SCC(=O)Nc2ccc3c(c2)OCCO3)nnc1-c1ccccn1	1	0.0	-3	0	3	1
O=S(=O)(Nc1nc2c(s1)CCCC2)c1ccc(Br)cc1	-5	1.0	-9	-5	-1	9
CCN1CCN(C(c2cccc(OC)c2)c2sc3nc(C)nn3c2O)CC1 (centres undefined)	-8	1.4	6	5	-4	-13
CCC1(c2ccccc2)NC(=O)N(CC(=O)NCc2ccc(F)cc2)C1=O (centres undefined)	22	0.6	6	7	8	-7
N#Cc1ccc(/C=N/NC(=S)Nc2ccc(S(=O)(=O)N3CCOCC3)cc2)cc1	5	0.0	-2	5	-1	-2
COc1cc(CCN2C(=O)N[C@@H](CCc3ccccc3)C(C(C)=O)=C2C)cc(OC)c1OC	25	-0.2	-4	-2	-1	-11
Cc1cc(C)c2cc3c(N)c(C(=O)N4CCc5ccccc5C4)sc3nc2c1	8	8.2	3	-1	2	2
O=C1Nc2ccc3c(c2C1=Cc1cc2c(cc1Br)OCO2)OCO3	.	1.5	6	12	-3	28
COc1cccc(N/C(SCc2ccccc2F)=C(/C#N)C(=O)NCc2cccs2)c1	13	3.8	-12	11	-5	-2
O=C(O)c1cccc(CN2C(=O)CSC2=O)c1	20	-0.5	9	-12	-4	4
CCOC(=O)n1c(=O)n(Cc2ccccc2Cl)c2ccccc21	-8	3.3	0	19	-1	1
O=C(COC(=O)/C=C/c1ccc(Cl)cc1)NC1CCS(=O)(=O)C1 (centres undefined)	.	-0.6	-22	1	-15	-6
CCCCc1ccc(NC(=O)N[C@@H](C)C(=O)O)cc1	20	-0.7	7	4	14	8
O=C(NCCc1ccccc1Cl)C1CC(=O)N(C2CCCCC2)C1 (centres undefined)	9	0.2	24	-2	5	6
N#Cc1ccc(COn2nnc3ccccc32)cc1	-22	-0.2	-1	1	0	-5
COc1ccccc1CNC(=O)C(CC(C)C)NS(=O)(=O)c1ccc2c(c1)oc(=O)n2C (centres undefined)	4	-1.2&-1.1	-7	-2&0	-5	-2
O=C(Nc1ccc(SC(F)F)cc1)c1cccc2nc3ccccc3nc12	-7	0.5	-1	2	-7	-12

Shown with values under each structure: twelve of the compounds above
Results follow in this order: TRPV1 potentiator | TRPML1 ag | Six1-Eya2 blk | TRPML1 blocker | CtBP-E1A inh | D2 PAM
> COc1cc(CCN2C(=O)N[C@@H](CCc3ccccc3)C(C(C)=O)=C2C)cc(OC)c1OC
→ 25 | -0.2 | -4 | -2 | -1 | -11
> Cc1cc(C)c2cc3c(N)c(C(=O)N4CCc5ccccc5C4)sc3nc2c1
→ 8 | 8.2 | 3 | -1 | 2 | 2
> O=C1Nc2ccc3c(c2C1=Cc1cc2c(cc1Br)OCO2)OCO3
→ . | 1.5 | 6 | 12 | -3 | 28
> COc1cccc(N/C(SCc2ccccc2F)=C(/C#N)C(=O)NCc2cccs2)c1
→ 13 | 3.8 | -12 | 11 | -5 | -2
> O=C(O)c1cccc(CN2C(=O)CSC2=O)c1
→ 20 | -0.5 | 9 | -12 | -4 | 4
> CCOC(=O)n1c(=O)n(Cc2ccccc2Cl)c2ccccc21
→ -8 | 3.3 | 0 | 19 | -1 | 1
> O=C(COC(=O)/C=C/c1ccc(Cl)cc1)NC1CCS(=O)(=O)C1 (centres undefined)
→ . | -0.6 | -22 | 1 | -15 | -6
> CCCCc1ccc(NC(=O)N[C@@H](C)C(=O)O)cc1
→ 20 | -0.7 | 7 | 4 | 14 | 8
> O=C(NCCc1ccccc1Cl)C1CC(=O)N(C2CCCCC2)C1 (centres undefined)
→ 9 | 0.2 | 24 | -2 | 5 | 6
> N#Cc1ccc(COn2nnc3ccccc32)cc1
→ -22 | -0.2 | -1 | 1 | 0 | -5
> COc1ccccc1CNC(=O)C(CC(C)C)NS(=O)(=O)c1ccc2c(c1)oc(=O)n2C (centres undefined)
→ 4 | -1.2&-1.1 | -7 | -2&0 | -5 | -2
> O=C(Nc1ccc(SC(F)F)cc1)c1cccc2nc3ccccc3nc12
→ -7 | 0.5 | -1 | 2 | -7 | -12

The list continues.
SMILES	TRPV1 potentiator	TRPML1 ag	Six1-Eya2 blk	TRPML1 blocker	CtBP-E1A inh	D2 PAM
Cc1cccc(Nc2nnc(SC/C(O)=C(\C#N)c3nc4ccccc4[nH]3)s2)c1	4	0.9	-14	-12	-22	11
CCN1/C(=C2\C(=O)N(C)C(=S)N2C)C=Cc2cc(OC)ccc21	-6	-0.6	-4	26	-6	-5
Cc1ccc(S(=O)(=O)N2CCCSCC2)cc1	10	-0.5	11	0	3	-2
CCOc1cc(N2CCOCC2)c(OCC)cc1NC(=O)c1cc(-c2ccco2)nc2ccccc12	-12	18	-22	15	6	-3
CC(=O)Nc1ccc(NC(=O)[C@@H](NC(=O)c2cccc(C)c2)C(C)C)cc1	3	-0.6	-4	7	-3	-10
O=C1C=C(c2ccc(Cl)nc2)C[C@@H](c2ccc3c(c2)OCO3)C1	-20	2.4	-9	-14	0	-5
COc1ccc(CNC(=O)c2ccc(CS(=O)c3ccccc3)o2)cc1 (centres undefined)	4	0.2	1	-2	-1	-10
CCOc1cc(C(N)=O)cc(OCC)c1OCC	1	0.1	3	-9	7	-10
COc1ccc(C2=NCC(CSc3nnnn3C)S2)cc1 (centres undefined)	0	-0.7	6	12	3	-3
O=C(O)CNC(=O)c1ccc(NC(=O)/C(=C/c2ccccc2)NC(=O)c2ccco2)cc1	0	-0.2	2	-22	1	-11
CC1(c2nnc(-c3ccncc3)o2)CC(c2cccc(Cl)c2)=NO1 (centres undefined)	.	-0.1	0	-13	.	-6
O=C(O)c1ncsc1-c1ccccc1	10	0.3	-1	13	-5	-2
CCCCN1C(=O)C(NC(C)=O)c2cc(Br)ccc21 (centres undefined)	-20	-0.6	4	0	0	-11
CCC(=O)Nc1ccc(C(=O)CSc2nc(N)cc(N)n2)cc1	1	0.5	-3	-1	.	-9
Cc1ccc(C)c(C(=O)COC(=O)c2cc(S(=O)(=O)N3CCOCC3)ccc2F)c1	.	1.0	-7	12	-5	-9
Cc1ccc(OCC(=O)Oc2c(C)cccc2C)cc1	-2	0.6	31	1	55	-16
CCC(C)NC(=O)c1cn(C)c(=O)c2cc(OC)c(OC)cc12 (centres undefined)	6	0.1	2	53	-6	-1
Nc1nnc(-c2ccc(Cl)cc2)s1	?	-0.2	1	2	9	-12
O=C(O)Cn1c(=O)c(F)cn(C2CCCO2)c1=O (centres undefined)	-2	0.0	2	18	5	3
O=C1CCN(S(=O)(=O)c2ccccc2)N1	-4	1.8	4	23	8	-30
Cc1ccc2nc(-c3cccc(-c4cccc(Cl)c4)c3)c(NCc3ccccc3)n2c1	4	1.4	-10	50	-7	-11
Cc1nc(-c2ccccc2Cl)sc1C(=O)/C=C/N(C)C	-4	0.1	-8	17	2	0
N#CCC(=O)N/N=C/c1ccc(OC2CSC2)cc1	-6	0.6	-2	14	-11	-4
CCOc1ccc(OCC)c(NC(=O)CSc2nc3ccccc3c(=O)n2C)c1	25	0.7	1	7	2	6
COc1ccc(OCc2nc(N)nc(Nc3ccccc3OC)n2)cc1	-2	-1.2	0	-9	-1	3

Rows are unselected; about 0.95% have a hit in one of these screens.
